Compound activity as filed in PubChem.
GIRK2 act – opens human GIRK2 potassium channels. 63,000 tested, 0.05% active. HEK293-GIRK2 thallium flux, Thallos fluorescence. calls only for hits at 25 µM. P48051;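 active = among the strongest 0.2% of first-round signals and kept after retests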;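 also: first round at about 10 µM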
Target sequence (P48051 whole entry, looked up): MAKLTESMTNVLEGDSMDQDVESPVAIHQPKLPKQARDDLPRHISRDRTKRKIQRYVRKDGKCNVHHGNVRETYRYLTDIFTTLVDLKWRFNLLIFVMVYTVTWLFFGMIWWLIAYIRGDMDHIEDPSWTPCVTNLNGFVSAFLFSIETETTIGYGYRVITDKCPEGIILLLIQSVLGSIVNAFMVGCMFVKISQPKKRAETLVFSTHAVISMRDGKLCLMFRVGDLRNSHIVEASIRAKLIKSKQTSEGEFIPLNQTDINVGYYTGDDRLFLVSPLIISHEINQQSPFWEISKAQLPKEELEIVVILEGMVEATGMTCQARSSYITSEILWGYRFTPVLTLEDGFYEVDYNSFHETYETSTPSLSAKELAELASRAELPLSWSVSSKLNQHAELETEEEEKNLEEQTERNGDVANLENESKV
Calls only; i = inactive.

| compound | GIRK2 act |
| --- | --- |
| COc1ccc(NC(=O)Cn2cnc3c(-c4ccc(OC)cc4)csc3c2=O)cc1 | i |
| CC(C)(C)C(=O)NCCN1CCN(S(C)(=O)=O)CC1 | i |
| Cc1noc(C)c1CCC(=O)OC1CN(c2nc3c(C(F)(F)F)cccc3s2)C1 | i |
| COc1ccc2nc(-n3nc(C)cc3NC(=O)c3ccc4c(c3)OCO4)sc2c1 | i |
| Cc1ccc(-n2ccn(Cc3cccc(Cl)c3)c(=O)c2=O)cc1C | i |
| CS(=O)(=O)N1CCN=C1SCc1ccc(Cl)c(Cl)c1 | i |
| COCCc1noc(-c2ccc(=O)n(CC(=O)N3CCN(c4ccc(F)cc4)CC3)c2)n1 | i |
| Cc1cccc(OCC(=O)NCc2sc(-c3ccccc3)nc2C)c1 | i |
| O=C(Nc1ccc(Cl)c(Cl)c1)N1C2CCCC1COC2 | i |
| O=C(CSc1ccc(-n2cnc(-c3ccccc3)c2)nn1)Nc1cccc(Cl)c1 | i |
| COc1cccc(C(=O)N2CCOCC2CN(C)C)c1OC (centres undefined) | i |
| COc1ccc(CCNC(=O)N2CCC(Cn3ccnc3C(C)C)CC2)cc1 | i |
| O=C(c1ccccc1Cl)N1CCN(CC(O)C2CC2)CC1 (centres undefined) | i |
| Cc1ccc(C)c(NC(=O)Cn2nc(-c3nc(-c4ccccc4)no3)ccc2=O)c1 | i |
| O=C(c1ccncc1)N1CCC(Oc2ccccn2)CC1 | i |
| Cc1ccc(-c2nnc(NC(=O)c3ccc([N+](=O)[O-])s3)o2)cc1C | i |
| Cc1ccc(=O)n(CC(=O)NC(c2ccccc2)c2ccccc2)n1 | i |
| COc1ccc(OC)c(CNC(=O)c2ccc(Oc3nccnc3N3CCOCC3)cc2)c1 | i |
| O=C(NCCc1ccncc1)c1cc2n(n1)CCCO2 | i |
| O=C(NCCNc1ccc(Nc2ccncc2)nn1)c1ccc(Br)o1 | i |
| Cc1cc(=O)n2c(-c3cccc(NC(=O)COc4ccc(Cl)cc4)c3)csc2n1 | i |
| C/C=C/C=C/C1C=CC2CC(C)CCC2C1(C)/C(O)=C1/C(=O)NC(C(C)O)C1=O (centres undefined) | i |
| CCCn1c(=O)c2cc(F)ccc2n2c(SCC(=O)Nc3ccc(C(C)=O)cc3)nnc12 | i |
| O=C(Nc1sc2c(c1CN1CCCCCC1)CCC2)c1ccc(F)cc1 | i |
| COC(=O)N1CCC(CNC(=O)NCc2ccc(F)cc2)CC1 | i |
| COc1ccc(S(=O)(=O)Nc2cnc(N(C)C)nc2)cc1Cl | i |
| Cc1ccccc1-n1nnc(C(=O)NCC2COCCO2)c1-c1ccncc1 (centres undefined) | i |
| CCCCC(C)CC(O)/C=C/C1C(O)CC(O)C1CCCCCCC(=O)O (centres undefined) | i |
| COc1ccc(Cl)cc1C(=O)NCCn1ncccc1=O | i |
| Cc1nc(N2CCN(C(=O)c3sc(C)nc3C)CC2)cc(-n2cccc2)n1 | i |
| Cn1nc(-c2ccccc2)cc1C(=O)Nc1cc(N2CCN(c3ccccc3)CC2)ncn1 | i |
| Cc1ccc(C)c(-n2c(C)cn3c4c(=O)n(CC(N)=O)c(=O)n(C)c4nc23)c1 | i |
| COc1ccc(CCNC(=O)CCc2csc(NC(=O)c3ccco3)n2)cc1OC | i |
| O=C(Cc1cccc2ccccc12)N1C2CCC1COC2 | i |
| COc1ccccc1-n1ccn(CC(=O)N2CCCc3ccccc32)c(=O)c1=O | i |
| O=C(c1cccc(-n2cnnn2)c1)N1CCC(Oc2ncccc2Cl)CC1 | i |
| NC(=O)c1nnn(-c2ccc(NC(=O)COc3ccccc3)cc2)n1 | i |
| CNC(=O)C(=O)NCC1OCCCN1S(=O)(=O)c1c(C)cc(C)cc1C (centres undefined) | i |
| Fc1ccc(-c2csc(Cc3nc(-c4ccccc4)no3)n2)cc1 | i |
| C=CCNC(=O)Nc1nnc(Cc2ccccc2)o1 | i |

Fetched one by one from the entries so far (5):
| compound | GIRK2 act |
| --- | --- |
| COc1ccccc1-n1ccn(CC(=O)N2CCCc3ccccc32)c(=O)c1=O | i |
| NC(=O)c1nnn(-c2ccc(NC(=O)COc3ccccc3)cc2)n1 | i |
| COc1ccc(CCNC(=O)CCc2csc(NC(=O)c3ccco3)n2)cc1OC | i |
| O=C(c1cccc(-n2cnnn2)c1)N1CCC(Oc2ncccc2Cl)CC1 | i |
| O=C(Cc1cccc2ccccc12)N1C2CCC1COC2 | i |

Additional records:
| compound | GIRK2 act |
| --- | --- |
| COc1cccc(OCC(=O)Nc2ccc(C)c(N3CCCC3=O)c2)c1 | i |
| COc1cc2ccccc2cc1C(=O)Nc1nnc(-c2cc(C)ccc2C)o1 | i |
| O=C(c1ccccc1Br)N1CCC(CSc2ccccn2)CC1 | i |
| COc1cccc2cc(C(=O)C3=C(O)C(=O)N(c4cc(C)on4)C3c3cccs3)oc12 (centres undefined) | i |
| COc1ccc(Br)c(C(=O)NCC#CCN(C(C)C)C(C)C)c1 | i |
| O=C(c1ccc(Br)o1)N1CC(c2nc(C3CC3)no2)C1 | i |
| COc1ccccc1N1CCN(c2nccnc2SCC(=O)Nc2ccc3c(c2)OCCO3)CC1 | i |
| Cc1cc(N2CCN(C(=O)CCSc3ccccc3)CC2)ncn1 | i |

Molecules above that contain a thiophene ring, fused or not:
| compound | GIRK2 act |
| --- | --- |
| COc1ccc(NC(=O)Cn2cnc3c(-c4ccc(OC)cc4)csc3c2=O)cc1 | i |
| Cc1ccc(-c2nnc(NC(=O)c3ccc([N+](=O)[O-])s3)o2)cc1C | i |
| O=C(Nc1sc2c(c1CN1CCCCCC1)CCC2)c1ccc(F)cc1 | i |
| COc1cccc2cc(C(=O)C3=C(O)C(=O)N(c4cc(C)on4)C3c3cccs3)oc12 (centres undefined) | i |

Additional results follow:
| compound | GIRK2 act |
| --- | --- |
| COc1nn(C)cc1C(=O)N1CCC(C(=O)NCC(F)(F)F)CC1 | i |
| O=C(CN1C(=O)CCC1=O)NCC1CCN(S(=O)(=O)c2cccnc2)CC1 | i |
| COc1ccc(CCNC(=O)NCC#CCN2CCCC2)cc1 | i |
| CC(C)(C)C(O)CCNS(=O)(=O)c1ccc(N2CCCCS2(=O)=O)cc1 (centres undefined) | i |
| Cc1cc(NC(=O)Cc2ccc(S(C)(=O)=O)cc2)n(-c2nc3ccccc3s2)n1 | i |
| O=C(NCC(O)c1ccoc1)c1cc(=O)c2ccccc2o1 (centres undefined) | i |
| COc1ccc(OC)c(CNC(=O)c2cn(C)nc2S(=O)(=O)N2CCCCC2)c1 | i |
| CCCS(=O)(=O)N1CCN=C1SCc1c(F)cccc1Cl | i |
| COc1cccc(NC(=O)Nc2ccc3c(c2)N(S(=O)(=O)c2ccccc2)CCC3)c1OC | i |
| Cn1c(=O)c2c(nc(N3CCOCC3)n2CCSc2ncccn2)n(C)c1=O | i |
| CC(=O)NCC1(O)CCOc2ccccc21 (centres undefined) | i |
| O=C(NCCc1ccoc1)Nc1ccccc1Cl | i |
| CCCCC/C=C\C/C=C\C/C=C\CCCCCCC(=O)OCC | i |
| COc1ccc(-c2nc(C)c(-c3cc(=O)[nH]c(SCC(=O)Nc4cccc(OC)c4)n3)s2)cc1 | i |
| Cc1nnc(CNC(=O)CN(C)C(=O)c2c[nH]c3ccccc23)o1 | i |
| CCCCC[C@H](O)/C=C/[C@H]1[C@H](O)CC(=O)[C@@H]1C/C=C\CCCC(=O)OCC(O)CO (some centres undefined) | i |

Entries from the list above that contain an NH in an aromatic ring:
| compound | GIRK2 act |
| --- | --- |
| COc1ccc(-c2nc(C)c(-c3cc(=O)[nH]c(SCC(=O)Nc4cccc(OC)c4)n3)s2)cc1 | i |
| Cc1nnc(CNC(=O)CN(C)C(=O)c2c[nH]c3ccccc23)o1 | i |

(list continues)
structure,GIRK2 act
CCOc1cc(C2NC(=O)NC(C)=C2C(=O)OC(C)C)ccc1OCc1ccccc1 (centres undefined),i
C/C=C(\C)C[C@H](C)C[C@H](C)[C@H]1OC(=O)C=CC1OC(=O)/C=C/C(C)=C/[C@@H](CO)CCO (some centres undefined),i
CCOC(=O)N1CCN(Cc2cc(=O)oc3cc(-c4ccccc4)c(O)cc23)CC1,i
Cn1c(SCC(O)CO)nc2c1c(=O)n(Cc1ccccc1)c(=O)n2C (centres undefined),i
Cc1ccc(NC(=O)CCCC(=O)O)c(-c2nc3ccccc3[nH]c2=O)c1,i
COc1ccc(CC(=O)NCC2CCN(Cc3ccsc3)CC2)cc1OC,i
COc1ncc(NC(=O)c2cccc(Cl)c2)cn1,i
COc1ccc(N2C(=O)C3N=NN(Cc4ccccc4)C3C2=O)cc1 (centres undefined),i
C/C=C/C=C/C=C/C(=O)O[C@@H]1C=C2COC(=O)[C@]2(O)[C@@]2(C)CCCC(C)(C)[C@H]12,i
Cc1cc(-c2nnc(NC(=O)C3(c4ccccc4)CCOCC3)o2)c(C)o1,i
O=C(CC1CCCCC1)NC1CCN(C(=O)c2cc(-c3cccs3)[nH]n2)CC1,i
CS(=O)(=O)N1CCN(C(=O)Cn2cnc3ccccc32)CC1,i
CN(Cc1ccccc1)c1nc2c(c(=O)n(Cc3ccccc3)c(=O)n2C)n1C,i
CCN(CC)S(=O)(=O)c1ccc(C(=O)N(Cc2ccoc2)Cc2cccs2)cc1,i
Cc1c(CNC(=O)Cn2cncn2)sc2nc(-c3ccc(F)cc3)cn12,i
O=C(NCc1nc2ccccc2[nH]1)c1nnn(-c2ccc(C(F)(F)F)cc2)n1,i
COc1ccc(-n2ccn(CC(=O)Nc3ccc(OC)cc3OC)c(=O)c2=O)cc1,i
COc1ccc(C(CNS(=O)(=O)c2ccc(Br)cc2)N2CCN(C)CC2)cc1 (centres undefined),i
Cc1cccc(C(=O)N(CCN2CCOCC2)c2nc3c(F)cc(F)cc3s2)c1,i
COc1cc(NC(=O)C2CC(=O)N(c3ccc(C)c(C)c3)C2)ncn1 (centres undefined),i
CCOc1ccccc1N1CCN(C(=O)c2nnn(-c3ccc(F)c(C)c3)c2C)CC1,i
COc1ccc(C(=O)NC2CCN(C(=O)c3cn(-c4ccccc4C)nn3)CC2)cc1OC,i
CC(C)(C)OCC(O)CN1CCN(c2cccc(Cl)c2)CC1 (centres undefined),i
COC(=O)C(C)Oc1ccc2c(c1C)O/C(=C\c1ccc3c(c1)OCO3)C2=O (centres undefined),i
CS(=O)(=O)c1ccc(-c2nnc(SC/C=C/c3ccccc3)o2)cc1,i
CCOC(=O)N1CCC(NC(=O)c2nnn3cc(C)[nH]c(=O)c23)CC1,i
O=C(/C=C/c1ccc2c(c1)OCO2)Nc1nnc(-c2ccc(Br)s2)o1,i
Cc1ccc2[nH]c3c(=O)n(CC(=O)N4CCN(c5ccc(F)cc5)CC4)cnc3c2c1,i
Cc1cc2ncn(CCC(=O)N3CCCCCC3)c2cc1C,i
O=c1ccn(-c2ccc(Cl)cc2)nc1-c1nc(-c2ccccc2OCc2ccccc2)no1,i
Cc1nc(-c2nnc(NC(=O)c3ccc(=O)n(C)n3)o2)cs1,i
CS(=O)(=O)Nc1cccc(NC(=O)CNC(=O)c2c[nH]c3ccccc23)c1,i
O=C(CC1CCCCC1)NC1CCN(C(=O)c2cc(-c3ccc(F)cc3)n[nH]2)CC1,i
COc1cccc(-c2cc(=O)[nH]c(SCc3nc(-c4ccc(Cl)c(F)c4)no3)n2)c1,i
O=C(NCc1ccc(F)cc1)NCC1(O)CCOc2ccccc21 (centres undefined),i
Cc1cccn2c(=O)cc(OCc3nc4ccccc4c(=O)[nH]3)nc12,i
O=C(NCc1cc(F)cc(F)c1)c1nnn(Cc2cccc(F)c2)c1-n1cccc1,i
COCC(C)NC(=O)CN1CCN(c2ccccc2)C1=O (centres undefined),i
COc1c(C)c(C(C)(O)/C=C(\C)C(O)/C(C)=C/C2(C)OC(C)C3(C)OC23)oc(=O)c1C (centres undefined),i
N#Cc1cccnc1N1CCOCC1,i
COc1ccc(-c2cc3c(=O)n(CC(=O)NCCc4ccc(OC)c(OC)c4)ccn3n2)cc1,i
COC(=O)c1ccc2c(=O)n(Cc3ccc(C(=O)NCCCN4CCCCC4)cc3)c(=S)[nH]c2c1,i
CCc1[nH]nc(S(=O)(=O)N2CCN(Cc3ccc4c(c3)OCO4)CC2)c1C(=O)OC,i
O=C(CN1CCC(c2nnc(-c3ccsc3)o2)CC1)NCc1ccco1,i
CCCc1nnsc1C(=O)NCc1nc(C)no1,i
O=C(NCC#CCN1CCOCC1)NCc1ccc(Cl)cc1,i
O=C(NCC1CCN(S(=O)(=O)c2cccnc2)CC1)c1ccsc1,i
CCN1CCCC1CNC(=O)c1cc(S(=O)(=O)CC)c(N)cc1OC (centres undefined),i
COc1ccc(NC(=O)c2ccc3c(=O)n4c(nc3c2)SCC4)cc1,i
Cc1[nH]c(=O)n(C)c(=O)c1CCC(=O)Nc1ccc(N2CCN(C)CC2)cc1,i
Cc1c(C(=O)Nc2sccc2-c2nc3ccccc3s2)cnn1-c1ccccc1,i
COc1ccc(NC(=O)c2cn(C)nc2S(=O)(=O)N2CCN(c3cccc(Cl)c3)CC2)cc1,i
CCOc1ccc(N2CC(C)Cn3c2nc2c3c(=O)n(CCCc3ccccc3)c(=O)n2C)cc1 (centres undefined),i
COc1ccc(SCC2CCN(C(=O)c3cc4ccccc4o3)CC2)cc1,i
COc1ccc(-c2noc(-c3ccc(SCC(=O)N4CCOCC4)nc3)n2)cc1,i
CN(c1ccsc1C(=O)NCc1cccc(C(F)(F)F)c1)S(=O)(=O)c1ccccc1,i

2 entries from above, with the structure last:
GIRK2 act,SMILES
i,O=C(c1ccc(Br)o1)N1CC(c2nc(C3CC3)no2)C1
i,Cc1ccc(-n2ccn(Cc3cccc(Cl)c3)c(=O)c2=O)cc1C

Next part.
structure,GIRK2 act
COc1ccc(OCC(O)Cn2c(N3CCCCCC3)nc3c2c(=O)n(C)c(=O)n3C)cc1 (centres undefined),i
COC(=O)CNC(=O)c1ccccc1-c1ccccc1C(=O)O,i
COc1ccc(Cl)cc1C(=O)NCCCN1CCN(c2ccccc2)CC1,i
COc1ccc(S(=O)(=O)N2CCCc3cc(NC(=O)C4CC4)ccc32)cc1,i
C=CCNC(=O)c1c(N)n(/N=C\c2cccc([N+](=O)[O-])c2)c2nc3ccccc3nc12,i
CC1CN(Cc2nc3c(c(=O)n(C)c(=O)n3C)n2C(C)C)CC(C)O1 (centres undefined),i
COc1ccccc1-c1nc(Cn2nnc(C(=O)NCc3ccc(Cl)cc3)c2N)c(C)o1,i
CC(=O)c1ccc(S(=O)(=O)NCCC(O)c2ccccc2)cc1 (centres undefined),i

Only part of the results is shown; rates above refer to the full screens.
